Compound activity: PubChem, National Center for Advancing Translational Sciences (NCATS)
Rango dissoc inh – inhibition of RanGTP-driven Rango-importin beta dissociation; O95149+P62826; Biochemical FRET Rango-importin beta, RanGTP-induced dissociation; Potency, µM (top dose mostly 46.1 µM), for the others: at the highest dose activity change, negative = inhibition; 340,000 compounds, 0.071% hits; AID 540253; active means falling FRET ratio curve, often poorly fitted, with flat reads before Ran was added; inconclusive means other falling curves, or compound fluorescence or quenching; inactive means flat or rising ratio curve;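 also: potency is read from the fitted curve at half-maximal effect; % of control where 0% means no effect; nearly all actives have a fitted effect of over 45% in size; -100% = wells without RanGTP and RCC1; the record marks most hits as doubtful in a second field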
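Two FRET readings bracket the reaction: one 5 min after compound meets Rango–importin beta, another 45 min after RanGTP-RCC1 (0.6 uM Ran, 0.2 uM RCC1, 2 mM GTP) is added. Only the second defines inhibition.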
miR-21 reporter – raises the signal of a miR-21 reporter; AID 2288; HeLa miR-21 FLuc reporter, luciferase, 48 h; Potency, µM (doses to about 38.3 µM), for inactives: at the highest dose reporter change, positive = more light; 340,000 tested, under 10 active; active = well fitted rising curve with a large enough effect; inconclusive = small, poorly fitted or top-dose-only effect; inactive = no such curve, though single readings can be large or run the other way;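 also: % of control where 0% means no effect; miR-21 action dims this reporter so a rising signal means less miR-21 action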
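Compounds were titrated across several concentrations (up to approximately 40 uM) and incubated 48 hours with HeLa miR-21-FLuc reporter cells (miR-21 target sequence downstream of FLuc, endogenous miR-21). Readout was firefly luciferase luminescence after lytic detection reagent.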
Rango complex inh – inhibitors of Rango-importin beta complex formation | Q14974 | Rango CFP/YFP FRET sensor + importin beta, 45 min | Potency, µM (titrated, usually from 92.2 µM), without a hit: at the top dose inhibition of complex formation | 340,000 compounds, 0.031% hits | AID 540263; active = rising FRET ratio curve, often small or poorly fitted; inconclusive = mostly compound fluorescence or quenching in the first reads; inactive = flat curves in all reads;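 also: potency is read from the fitted curve at half-maximal effect; 0% = DMSO wells and 100% = buffer wells lacking importin beta; nearly all actives have a fitted effect of over 15% in size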
Target sequence (Q14974 whole entry, looked up): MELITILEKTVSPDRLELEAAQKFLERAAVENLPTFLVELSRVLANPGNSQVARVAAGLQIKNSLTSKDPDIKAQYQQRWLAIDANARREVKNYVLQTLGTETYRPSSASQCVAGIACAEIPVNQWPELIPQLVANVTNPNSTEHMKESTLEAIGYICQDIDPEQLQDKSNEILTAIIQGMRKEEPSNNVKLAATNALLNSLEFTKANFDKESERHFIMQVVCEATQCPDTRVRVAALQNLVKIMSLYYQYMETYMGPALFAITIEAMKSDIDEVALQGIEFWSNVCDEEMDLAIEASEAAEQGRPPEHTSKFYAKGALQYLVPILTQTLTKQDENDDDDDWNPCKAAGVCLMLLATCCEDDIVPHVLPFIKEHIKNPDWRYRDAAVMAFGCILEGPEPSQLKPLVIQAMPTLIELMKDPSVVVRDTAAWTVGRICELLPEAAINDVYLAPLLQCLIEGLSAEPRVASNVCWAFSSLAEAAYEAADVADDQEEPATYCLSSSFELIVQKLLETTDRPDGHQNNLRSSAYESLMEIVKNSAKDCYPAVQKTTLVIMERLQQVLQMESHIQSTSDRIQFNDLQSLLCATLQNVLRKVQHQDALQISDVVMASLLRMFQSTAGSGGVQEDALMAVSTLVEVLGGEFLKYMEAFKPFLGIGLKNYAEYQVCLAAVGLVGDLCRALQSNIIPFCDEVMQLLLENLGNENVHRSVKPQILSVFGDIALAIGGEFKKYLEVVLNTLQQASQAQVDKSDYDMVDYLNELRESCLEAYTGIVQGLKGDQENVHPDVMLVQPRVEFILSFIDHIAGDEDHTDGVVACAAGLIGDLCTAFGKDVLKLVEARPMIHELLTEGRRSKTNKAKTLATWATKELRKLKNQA
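Inhibition scored from the CFP 486 nm/YFP 530 nm FRET ratio 45 min after adding 0.125 microM importin beta to 50 nM Rango biosensor preincubated 5 min with compound (room temperature, PBS with DTT, Tween-20, BSA). No-importin wells as positive control.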
GLA inh pH 4.5 – inhibitors of human alpha-galactosidase A at pH 4.5; 230,000 tested, under 10 active; P06280; purified enzyme, 4-MU-alpha-Gal fluorescence, pH 4.5; AID 1467; activity change, negative = inhibition, % at 105 µM; inconclusive = small, poorly fitted or top-dose-only inhibition, or a rising curve; inactive = flat fitted curve, though single readings scatter; no compound was filed as active;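 also: 0% = full activity with enzyme and -100% = basal without enzyme; dose as in the result columns while the protocol names 77 µM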
* = called active by the depositor; ? = inconclusive; nt = not tested or not shown; & = joins results of further samples. Some of the compounds tested; count on the stated rates, not on these rows.

SMILES	Rango dissoc inh	miR-21 reporter	Rango complex inh	GLA inh pH 4.5
Cc1ccccc1NC(=O)c1nn(C)c(C(=O)Nc2ccccc2C)c1[N+](=O)[O-]	19%	1%	-4.7%	nt
COc1ccc(/C=N/Nc2ncnc3c2[nH]c2ccc(C)cc23)c(OC)c1OC	-1%	-1%	0.2%	-4
C=CCn1c(SCC(=O)Nc2ccc(F)cc2)nnc1-c1cnccn1	1%	-9%	0.5%	nt
Cc1cc(-n2c(=O)c(C#N)cc3c(=O)n4ccccc4nc32)no1	?	0%	?	?
COc1ccc(C(=O)/C=C/c2ccc(O)cc2)c(O)c1C/C=C(\C)CCC=C(C)C	16%	nt	0.2%	nt
CCN(CC)C(=O)CSc1ncnc2c1cnn2-c1ccccc1	-3%	-48%	5.2%	-1
CCOC(=O)c1ccc(NC(=S)NCCCN2CCOCC2)cc1	12%	0%	0.2%	1
COc1ccccc1N(C)S(=O)(=O)c1ccc(C(=O)Nc2ccc(N3CCOCC3)cc2)cc1	-16%	28%	-1.2%	3
O=C(Nc1nccs1)c1ccc2nccnc2c1	?	-19%	?	-1
Cc1cc(OC(=O)c2ccc3ccccc3c2)c([N+](=O)[O-])c(=O)[nH]1	-11%	-2%	3.3%	-11
O=C(CN1C(=O)NC2(CCOc3ccccc32)C1=O)Nc1ccc(Br)cc1F (stereo unspecified)	0%	nt	-1.7%	nt
CN(C)S(=O)(=O)c1cc(NC(=O)Cn2ccsc2=N)ccc1Cl	-8%	-8%	-2.1%	0
O=c1[nH]n2c(=O)c3c([nH]c2c1N=Nc1cccc(Cl)c1)CCCC3	5%	-4%	5.6%	-18
Cc1ccc(N/N=C(/Sc2nnnn2-c2ccccc2)C(=O)c2ccccc2)cc1	-7%	1%	-2.7%	-9
O=C(C1CC1)N1CCc2[nH]c3ccccc3c2C1	?	-15%	?	5
COc1ccc(Cn2cccc(NC(=O)Nc3ccc(F)cc3)c2=O)cc1	-10%	-2%	0.0%	-2
O=C(COC(=O)C1=COCCO1)Nc1ccc(Cl)cn1	-15%	nt	?	nt
CC12C(=O)N(c3ccccc3C(=O)O)C(=O)C1C1C=CC2C1 (stereo unspecified)	1%	-3%	-0.1%	2
CCOC(=O)c1cnc2c(-c3cccc(Br)c3)cnn2c1C	-9%	-11%	0.2%	-3
Cc1cccc(N2C(=O)C3CCCN3C2=S)c1 (stereo unspecified)	-17%	1%	-0.2%	nt
O=c1[nH]n2c(C(F)(F)F)cc(C3CC3)nc2c1N=Nc1ccccc1	-8%	-1%	5.6%	-12
CN(C)CCNC(=S)Nc1ccccc1C(C)(C)C	-3%	0%	-3.1%	8
C=CCc1cccc(/C=N/c2ncn[nH]2)c1O	-10%	-6%	1.2%	1
CC(Cn1nnc2ccccc21)C(=O)O (stereo unspecified)	2%	-2%	1.0%	0
CCOC(=O)C(C)Oc1ccccc1C1NC(=O)NC(C)=C1C(=O)Nc1ccc(C)c(C)c1 (stereo unspecified)	-7%	0%	-4.6%	-5
COc1ccc(OCc2nn[nH]n2)cc1	-3%	-2%	1.6%	nt
N#CCCN(C(=S)NC(=O)c1ccco1)c1ccccc1F	4%	-2%	0.9%	6
COc1ccc(-n2c(=S)[nH]c3cc(C(=O)Nc4ccccc4OC)ccc3c2=O)c(OC)c1	-6%	4%	-4.3%	nt
COc1ccc(S(=O)(=O)Nc2ccc3c(c2)C(=O)N([C@H](C)CO)C[C@H](C)[C@@H](CN(C)S(=O)(=O)c2ccccc2)O3)cc1	-15%	nt	1.8%	nt
Cc1cccc(N=c2oc3cc(O)ccc3cc2C(N)=O)c1	?	-6%	?	?
CCc1cc(=O)[nH]c(SCCc2ccccc2)n1	11%	-28%	0.4%	nt
Cc1cccc(/C=N/n2c(C)nnc2C)c1	10%	0%	-3.4%	11
CNC(=O)C1(C)C=CCN1C(=O)c1ccccc1 (stereo unspecified)	-26%	-20%	-4.3%	1&1
O=Cc1ccc(Sc2nnc(-c3ccccc3)o2)c([N+](=O)[O-])c1	-14%	20%	-4.7%	1
S=c1nc(-c2cccc(Cl)c2)[nH][nH]1	-2%	-10%	-0.4%	2
COc1ccccc1CNC(=O)Cn1c(=O)c2cccn2c2cccnc21	-14%	0%	?	nt
Nc1nc(-c2ccco2)nn1C(=O)c1cccnc1	18%	-1%	8.4%	11
CCCc1ccc(-c2c(C)sc(NC(=O)c3ccnn3C)c2C#N)cc1	?	3%	-3.1%	1
Cc1c(C(=O)O)cccc1-n1c(C)cc(C=O)c1C	-18%	-4%	?	2
O=C(Nc1cc(S(=O)(=O)N2CCOCC2)ccc1N1CCOCC1)C1CCCO1 (stereo unspecified)	-5%	-2%	1.2%	9
CCc1cccc(C)c1NC(=O)COC(=O)CSCc1ccccc1	-12%	nt	-1.2%	nt
CC1CCCN(S(=O)(=O)c2ccc3c(c2)C(C)(C)C(=O)N3C)C1 (stereo unspecified)	1%	1%	?	nt
Cc1ccc(CSCC(=O)Nc2ccccc2F)cc1	17%	-42%	-2.1%	-2
Cc1c(OCc2nn[nH]n2)ccc2c(-c3ccccc3)cc(=O)oc12	-12%	-8%	-1.8%	2
COc1ccc(NC(=O)CCC(=O)N(Cc2ccc(OC)c(OC)c2)c2nccs2)c(OC)c1	10%	-5%	4.8%	2
Cc1ccc(C(=O)N/C(=C/c2ccco2)C(=O)N2CCC(C)CC2)cc1	-6%	-1%	-1.8%	nt
Cc1cc(C)nc(NC(=O)c2cccc([N+](=O)[O-])c2C)n1	9%	0%	0.9%	0
CCSc1nnc(N(CCC(=O)O)CCC(=O)O)s1	?	1%	1.3%	-4
COc1ccc(CN(C(=O)/C=C/c2ccco2)C2CCS(=O)(=O)C2)cc1 (stereo unspecified)	-13%	-8%	?	-1
CC(C)Cn1c(N)c(C(=O)CSc2n[nH]c(N)n2)c(=O)n(C)c1=O	5%	nt	-1.5%	nt
Nc1cccnc1Sc1cc(Cl)cc(Cl)c1	1%	-2%	2.5%	-16
CC1(C)CN(C(=S)Nc2ccc(F)cc2F)C1=O	-7%	2%	-0.2%	nt
CC(C#N)(NC(=O)CN1CCN(S(=O)(=O)c2ccccc2Cl)CC1)C1CC1 (stereo unspecified)	7%	nt	2.2%	nt
O=C(CCNC(=O)c1ccc(Br)cc1)NCC1COc2ccccc2O1 (stereo unspecified)	-6%	-51%	-3.4%	nt
COc1ccc(CNc2ccc(Br)cc2)cc1	3%	-37%	0.2%	0
CCN(CC)S(=O)(=O)c1ccc(N2CCN(C)CC2)c(NC(=O)Nc2ccc(C)cc2)c1	-3%	-36%	-0.9%	nt
CC(C)(C)c1ccccc1NC(=O)Cn1c(=O)cnc2ccccc21	31%	-18%	4.7%	-4
CSc1nc(N)c2c(C)c(C)sc2n1	20%	-13%	1.0%	1
O=C(COc1cc(F)ccc1[N+](=O)[O-])Nc1ccc2c(c1)OCO2	-4%	nt	-5.8%	nt
COc1ccccc1C(=O)OCC(=O)c1ccc(CNC(C)=O)s1	-5%	nt	-2.8%	nt
Next records.
SMILES	Rango dissoc inh	miR-21 reporter	Rango complex inh	GLA inh pH 4.5
COc1ccc(C2=CC(c3sccc3C)n3nnnc3N2)cc1 (stereo unspecified)	?	-44%	?	-13
COc1cc(C)nc(Oc2ccc(=O)n(C)n2)n1	1%	-5%	5.0%	1
O=C(Nc1ccccc1N1CCOCC1)c1ccccc1NS(=O)(=O)c1ccc(F)cc1	16%	3%	0.2%	3
O=C(CCn1cccn1)Nc1ccc(-c2ccno2)cc1	8%	-32%	1.4%	nt
NC(=O)C1CCN(Cc2nc3ccccc3c(=O)[nH]2)CC1	4%	-4%	-4.9%	-7
CC(C)(C)C(=O)C1=C(O)C(=O)N(c2ccccc2)C1c1ccccc1 (stereo unspecified)	0%	2%	7.4%	nt
CN(CC(=O)Nc1ccncc1)S(=O)(=O)c1ccc(Br)cc1	5%	2%	4.1%	4
O=C(Cc1ccccc1[N+](=O)[O-])NNC(=O)c1cccs1	-7%	nt	0.9%	nt
O=C(O)CCC(=O)NC1CCCCC1	-2%	-5%	4.4%	4
O=C(CSc1nc(-c2ccco2)cc(C(F)(F)F)n1)N1CCCc2ccccc21	-4%	-5%	-0.9%	-2
Cc1nc(N)nc2c1CCCC2	22%	1%	4.6%	nt
CCOc1cc(NC(=S)NCC2CCCO2)c(OCC)cc1NC(=O)c1cccc(F)c1 (stereo unspecified)	-11%	1%	?	10
NS(=O)(=O)c1cccc(NC(=O)COC(=O)CC2CC3CCC2C3)c1 (stereo unspecified)	10%	2%	1.3%	-2
COc1cccc(-n2cc(CNC(=O)C3CCC(=O)N(C4CC4)C3)cn2)c1 (stereo unspecified)	4%	-3%	-5.9%	nt
COc1cc(CNn2cn[nH]c2=S)cc(Cl)c1OCc1ccccc1	13%	-1%	0.2%	1
O=C(NCc1cccnc1)C1CC(=O)N(C2CCCCC2)C1 (stereo unspecified)	-2%	-1%	1.5%	4
COc1ccc(OC)c(NC(=S)N2CCC(C(O)(c3ccccc3)c3ccccc3)CC2)c1	3%	4%	-0.1%	-3
O=C(CCN1C(=O)c2ccccc2C1=O)N1CCN(c2ccccc2)CC1	28%	-12%	3.1%	13
Nn1c(Cc2ccccc2F)nnc1SCCOc1ccc(Cl)cc1	2%	6%	0.8%	?
CCOCCCNC(=O)C(NC(=O)C1CCC(=O)N1)c1ccc(C)cc1 (stereo unspecified)	4%	-2%	2.8%	2

Quoted from the entries so far, 13 compounds:
SMILES	Rango dissoc inh	miR-21 reporter	Rango complex inh	GLA inh pH 4.5
O=C(Cc1ccccc1[N+](=O)[O-])NNC(=O)c1cccs1	-7%	nt	0.9%	nt
O=C(O)CCC(=O)NC1CCCCC1	-2%	-5%	4.4%	4
O=C(CSc1nc(-c2ccco2)cc(C(F)(F)F)n1)N1CCCc2ccccc21	-4%	-5%	-0.9%	-2
Cc1nc(N)nc2c1CCCC2	22%	1%	4.6%	nt
CCOc1cc(NC(=S)NCC2CCCO2)c(OCC)cc1NC(=O)c1cccc(F)c1 (stereo unspecified)	-11%	1%	?	10
NS(=O)(=O)c1cccc(NC(=O)COC(=O)CC2CC3CCC2C3)c1 (stereo unspecified)	10%	2%	1.3%	-2
COc1cccc(-n2cc(CNC(=O)C3CCC(=O)N(C4CC4)C3)cn2)c1 (stereo unspecified)	4%	-3%	-5.9%	nt
COc1cc(CNn2cn[nH]c2=S)cc(Cl)c1OCc1ccccc1	13%	-1%	0.2%	1
O=C(NCc1cccnc1)C1CC(=O)N(C2CCCCC2)C1 (stereo unspecified)	-2%	-1%	1.5%	4
COc1ccc(OC)c(NC(=S)N2CCC(C(O)(c3ccccc3)c3ccccc3)CC2)c1	3%	4%	-0.1%	-3
O=C(CCN1C(=O)c2ccccc2C1=O)N1CCN(c2ccccc2)CC1	28%	-12%	3.1%	13
Nn1c(Cc2ccccc2F)nnc1SCCOc1ccc(Cl)cc1	2%	6%	0.8%	?
CCOCCCNC(=O)C(NC(=O)C1CCC(=O)N1)c1ccc(C)cc1 (stereo unspecified)	4%	-2%	2.8%	2

The list goes on.
SMILES	Rango dissoc inh	miR-21 reporter	Rango complex inh	GLA inh pH 4.5
COc1ccc(NC(=O)CN(C)C(=O)c2cccc(S(=O)(=O)Nc3ccccc3Cl)c2)cc1	11%	nt	2.3%	nt
CCC(C)NS(=O)(=O)c1ccc(S(=O)(=O)Nc2cc3c(cc2C(C)=O)OCO3)cc1 (stereo unspecified)	2%	-11%	0.2%	8
O=C(CN1CCN(c2ccc(Cl)cc2)CC1)NCc1ccccc1	1%	-2%	1.1%	-7
N#CC(Cc1cc2ccccc2n1S(=O)(=O)c1ccccc1)OCc1ccccc1 (stereo unspecified)	-17%	nt	-0.2%	nt
COc1ccc(C(=O)Nc2cc(-c3ccc(C)cc3)no2)cc1	15%	-9%	1.4%	nt
Cc1ccc(/C=N/N=C/c2ccc(C)cc2)cc1	-3%	-16%	0.4%	4
CC(CC(=O)Nc1ccc(Cl)c([N+](=O)[O-])c1)c1ccccc1 (stereo unspecified)	-1%	?	-2.5%	4
CCOc1ccc(N(CC(=O)Nc2ccc(OC)cc2)S(C)(=O)=O)cc1	2%	-49%	-6.3%	1
